Compound activity from PubChem BioAssay.
YopH inh = inhibitors of Yersinia enterocolitica YopH tyrosine phosphatase. fluorescence Ex485/Em525. inhibition, %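 (about 10 µM by stock and volumes)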. 0.16% of 140,000 active. AID 898;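 active means inhibition of 50% or more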;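 further: controls were vehicle for no effect and minimum signal wells for full effect; inactives centre near -20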
Arbovirus anti = blocks arbovirus infection; arbovirus infection cell-based antiviral screen; inhibition, % at 10 µM; 0.37% of 200,000 active;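 active means inhibition from about 30%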;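 further: bluetongue infection of BSR cells; cell survival read as ATP light after 72 h; 0% = infected wells without compound and 100% = uninfected wells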
RecA splice inh = inhibitors of M. tuberculosis RecA intein splicing; cell-free RecA intein splicing, fluorescence; P9WHJ3; inhibition, %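 (about 9 µM by stock and volumes)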; 0.75% of 290,000 active; in the data active means inhibition above about 30%; inconclusive means no clear call, values can overlap the other calls;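 further: 0% = vehicle wells and 100% = reference inhibitor control wells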
Target sequence (P9WHJ3 whole entry, looked up, canonical isoform): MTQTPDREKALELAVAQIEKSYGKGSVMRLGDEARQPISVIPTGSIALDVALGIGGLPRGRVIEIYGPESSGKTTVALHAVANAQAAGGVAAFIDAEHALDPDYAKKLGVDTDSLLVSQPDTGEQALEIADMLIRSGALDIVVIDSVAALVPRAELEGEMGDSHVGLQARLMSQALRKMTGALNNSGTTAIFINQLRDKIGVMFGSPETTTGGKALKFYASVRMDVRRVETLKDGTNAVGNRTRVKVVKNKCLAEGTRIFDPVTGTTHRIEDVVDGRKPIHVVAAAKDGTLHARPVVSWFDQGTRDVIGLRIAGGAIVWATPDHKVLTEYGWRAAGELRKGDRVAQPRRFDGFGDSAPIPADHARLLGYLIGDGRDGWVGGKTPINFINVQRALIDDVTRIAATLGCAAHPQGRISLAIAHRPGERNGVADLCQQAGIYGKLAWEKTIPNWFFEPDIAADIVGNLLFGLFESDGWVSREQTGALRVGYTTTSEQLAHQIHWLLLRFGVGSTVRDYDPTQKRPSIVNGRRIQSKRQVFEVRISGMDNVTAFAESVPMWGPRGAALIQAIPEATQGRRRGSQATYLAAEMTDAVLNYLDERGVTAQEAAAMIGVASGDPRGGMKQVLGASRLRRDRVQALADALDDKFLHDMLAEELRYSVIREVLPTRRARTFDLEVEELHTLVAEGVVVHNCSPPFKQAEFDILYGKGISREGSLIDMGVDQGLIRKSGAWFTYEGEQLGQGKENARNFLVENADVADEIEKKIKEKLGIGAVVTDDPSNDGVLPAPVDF
Mtb betalactam = beta-lactam sensitization of Mtb H37Rv | M. tuberculosis H37Rv growth with meropenem, percent inhibition; hits of this screen are not shown here | inhibition, % at 25 µM | 0.27% of 330,000 active | AID 434955;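 active means about 74% or more and at least 40 points above the plate without the antibiotic, then above 30% in a dose series; inconclusive means first-round hits that could not be retested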;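 further: growth measured after seven days incubation then overnight dye step; 0% = bacteria only wells and 100% = bacteria with antibiotic; twin plates without the antibiotic show which effects depend on it; some results filed as inactive read as strong as hits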
Mtb growth = M. tuberculosis H37Rv growth inhibitors, H37Rv strain (AID 1626); M. tuberculosis H37Rv growth inhibition; higher % means a stronger effect; one-dose inhibition, % at 10 µM; IC50 in µM for titrated hits; 0.95% of 220,000 active;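 active means confirmed in a dose series; inconclusive means inhibition above 80% but not taken into the dose series; inactive means below 80% or under 30% at every dose of the series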;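 further: bacteria incubated seven days before Alamar blue readout; 0% = bacteria only wells and 100% = bacteria with antibiotic wells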
Arbovirus anti repeat = also measured in Arbovirus anti; calls as there; inhibition, %; measured here: 10K subset replicate screen; many hits read low in the repeat;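 first of two repeat runs on a subset; 0% = infected and 100% = uninfected wells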
Numbers without * were called inactive; ? = inconclusive; · = not tested or not shown.

SMILES	YopH inh	Arbovirus anti	RecA splice inh	Mtb betalactam	Mtb growth	others
Cc1cc(NC(=O)CCN2C(=O)C3C4CCC(C4)C3C2=O)c(C)cc1Br (centres undefined)	-10.7	-0.4	4.5	0.6	-2.6%
CCc1noc(C)c1C(=O)N1CCN(S(=O)(=O)c2ccc(Br)cc2Cl)CC1	·	·	2.7	-13.2	·
CC1(C)Cc2cccc(OCC(=O)N3CCN(c4ccc([N+](=O)[O-])cc4)CC3)c2O1	-4.2	5.0	0.1	-3.5	12.3%
COC(=O)CNC(=O)COC(=O)/C=C/c1ccc(F)cc1	·	8.1	0.3	2.5	0.5%
Cc1ccc(NC(=O)c2cc(CC(C)C)nc3ccccc23)cc1	·	·	-0.8	9.8	·
Cc1oc(/N=C/c2ccc3c(c2)OCO3)c(C#N)c1C	-23.7	14.6	-5.8	11.2	-6.0%
COCCCNC(=O)C(C)N1c2cccc3cccc(c23)S1(=O)=O (centres undefined)	·	·	1.2	-3.1	·
COc1ccc(/C=C(\CC(=O)O)c2nc3ccccc3o2)cc1	·	0.7	·	3.6	8.1%
CCCCNC(=O)CCn1c(=O)c2ccccc2n(Cc2ccccc2C)c1=O	-17.8	0.5	-0.1	-2.1	-15.7%
CC(C)Oc1ccc(S(=O)(=O)N2CCCCC2)cc1NC(=O)CN1C(=O)NC(C)(c2ccccc2)C1=O (centres undefined)	·	·	3.0	-11.5	·
COCCNC(=O)CN(C(=O)Cn1nnc2ccccc21)c1ccccc1C	·	-0.5	0.3	-0.6	-2.8%
CN(C)C(=O)[C@H]1C[C@H]1[C@@H](O)[C@H](CO)NC(=O)[C@H](Cc1ccccc1)NC(=O)OC(C)(C)C	·	·	-0.1	-5.5	·
COc1ccc2c(c1)OC13CCN(C)CC1C2C(C(=O)c1ccc(F)cc1)C(=O)N3 (centres undefined)	-32.9	-6.4	0.3	-9.9	·	Arbovirus anti repeat=4.7
Oc1ccc(Cl)cc1C=Nc1ccccc1Br	-4.7	-1.3	-1.5	-3.4	-2.5%
Cc1noc(C)c1CSc1ncnc2ccccc12	-1.3	-14.0	1.1	0.6	4.1%
Cc1cc(C)n2c(Br)c(CN3CCCC(C)C3)nc2n1 (centres undefined)	·	8.7	·	2.2	-5.8%
Cc1cc(NC(=O)C2C3C(=O)N(CC4CCCO4)C(C(=O)NCc4ccccc4)C34C=CC2(C)O4)no1 (centres undefined)	-16.4	8.0	1.2	-0.4	-11.7%
Cc1cc(N2CCCC2)n2nc(C)nc2n1	-20.8	2.9	-2.9	0.5	·	Arbovirus anti repeat=0.1
CCOc1cccc(C(=O)Nc2ccc(NC(=O)c3ccccc3)c(C)c2)c1	·	·	-0.1	2.8	·
Cc1cccc(C)c1NC(=O)Cn1c(=O)n(CCC(=O)NCc2ccco2)c(=O)c2sccc21	-8.1	0.4	4.4	-2.8	-4.4%
CCOCN(C(=O)Cn1c(C(C)O)nc2ccccc21)c1c(C)cccc1CC (centres undefined)	-31.5	5.4	4.5	-6.7	-0.3%
COc1ccc(/C=C2\SC(=O)N(CC(=O)NC3CCS(=O)(=O)C3)C2=O)cc1 (centres undefined)	·	·	-2.0	-1.2	·
CCOc1ccc(C(C(=O)NC(C)(C)C)N(CCOC)C(=O)CCC(=O)Nc2nccs2)cc1 (centres undefined)	·	·	1.6	1.4	·
Cc1ccc2nc(Cl)c(CN(C(=O)c3cnccn3)C3CCCCC3)cc2c1	-3.5	3.5	3.9	4.2	0.0%
Cc1ccc(C(=O)COC(=O)C(C)N2C(=O)C3C4C=CC(C4)C3C2=O)cc1C (centres undefined)	·	·	-0.1	-3.1	·
More structures.
SMILES	YopH inh	Arbovirus anti	RecA splice inh	Mtb betalactam	Mtb growth	others
Cc1cc2ccccc2c(=O)n1CC(=O)NCC(=O)N(C)C1CCCCC1	13.4	0.1	·	-3.3	3.6%
Cc1cccc(N2CCN(C(=O)COc3ccc4c(C)cc(=O)oc4c3C)CC2)c1C	·	·	1.9	76.9	·
c1ccc(-c2nc3nonc3c3nc4ccccc4n23)cc1	-34.3	-13.1	2.5	-4.8	12.4%
COc1ccc(NC(=O)C2CCN(S(=O)(=O)c3c(C)nn(C)c3C)CC2)cc1	·	·	-1.2	-0.6	·
CC(C)c1ccccc1NC(=O)CC1(CC(=O)O)CCCC1	·	·	0.8	-3.4	7.0%
COc1ccccc1-n1cnnc1SCC(=O)NCC1CCCO1 (centres undefined)	·	-1.6	0.8	-6.0	1.3%
CCN(CC)S(=O)(=O)c1cc(NS(=O)(=O)c2ccccc2)ccc1C	-38.9	2.0	1.5	-3.9	-2.4%
CC1CCCN(C(=O)C(Cc2ccccc2)n2cccc2)C1 (centres undefined)	-48.3	7.5	2.4	-3.4	-9.8%	Arbovirus anti repeat=0.6
CN1CCN(/N=C/c2nc(-c3ccc(Cl)cc3)n3ccccc23)CC1	-4.7	12.0	2.6	-0.8	4.4%
CCOc1ccc(NC(=O)CN(C)C(=O)C2CCCC2)cc1OCC	·	4.7	-0.8	4.7	0.2%
COC(=O)C1=C[C@@H](C(=O)OC)[C@@H]2C3=C(C(=O)C2(C)C)[C@H](c2ccccc2)[C@@H]2C(=O)N(C)C(=O)[C@@H]2[C@@H]3C1	·	·	-1.5	-7.2	-9.5%
Cc1cccn2c(=O)c(/C=C(\C#N)C(=O)NCc3ccco3)c(N3CCCCCC3)nc12	·	·	·	-0.4	-3.3%
COc1ccc(OC)c(C2/C(=C(/O)c3ccc(C)cc3)C(=O)C(=O)N2Cc2ccco2)c1 (centres undefined)	-23.9	-10.5	0.9	-1.9	-12.4%
COc1ccccc1CNC(=O)c1cc(S(=O)(=O)N2CCOCC2)cn1C	·	·	0.9	0.6	·
Cc1nc2ccccc2nc1OCC(=O)NCC(F)(F)F	-18.7	1.2	1.7	2.6	-2.3%
COc1cccc(-c2cc(C(=O)Nc3ccc4c(c3)OCO4)no2)c1	·	·	-1.4	0.6	·
Cc1nn(C)c(C)c1C1Nc2ccccc2C(=O)N1O (centres undefined)	4.7	-7.6	-3.6	-3.4	90.2%
NC(=O)c1ccc(NC(=O)COC(=O)C2CC(=O)N(Cc3ccccc3)C2)cc1 (centres undefined)	·	8.5	-1.5	-3.2	-3.8%
Cc1cccc2sc(NC(=O)CSCc3ccccc3)nc12	2.3	4.8	1.2	1.0	1.7%
COc1ccc(CCN2CCCn3c2nc2c3c(=O)n(CC(C)C)c(=O)n2C)cc1OC	·	·	0.2	1.8	·
Cc1cccc(/C(N)=N/OC(=O)COc2ccc(Cl)cc2)c1	·	35.5*	2.2	-5.2	14.2%
CN(C(=O)CSc1ncnc2scc(-c3ccccc3)c12)C1CCS(=O)(=O)C1 (centres undefined)	·	1.1	-0.6	-1.4	2.6%
CSc1ccc(C(=O)C2CCCN(C(=O)CCc3c(C)nn(C)c3C)C2)cc1 (centres undefined)	·	·	-4.3	-5.7	·
CC(C)OC(=O)COc1cc(O)c2c(=O)cc(-c3ccccc3)oc2c1	·	·	-1.1	98.6	?
Cc1cccc(N2CCN(C(=O)c3cccn4c(=O)c5c(C)c(C)sc5nc34)CC2)c1C	-7.7	5.5	-4.4	1.4	-0.9%
Next entries:
SMILES	YopH inh	Arbovirus anti	RecA splice inh	Mtb betalactam	Mtb growth	others
O=C(CN1CCOCC1)Nc1ncccn1	-11.7	4.6	0.7	3.2	-6.0%
COc1ccc(Cl)cc1NC(=O)CSc1nnc(Cc2cccn2C)n1-c1ccc(F)cc1	-22.8	-13.1	12.4	-2.3	1.1%
CCOC(=O)c1ccc2ncc(C(=O)OCC)c(NCCN(C)C)c2c1	-23.4	3.5	-0.8	-0.9	-3.5%	Arbovirus anti repeat=-1.8
NC(=O)COC(=O)c1ccccc1OCc1ccccc1	·	4.7	-0.5	6.8	-1.8%
CC(C)(C)NC(=O)CSc1nc(N)cc(=O)[nH]1	·	4.4	-0.5	-1.6	-1.8%
CCOc1ccccc1N1CC(C(=O)Nc2cc(S(C)(=O)=O)ccc2Cl)CC1=O (centres undefined)	·	·	0.5	-8.8	·
CCNC(=O)C(CC(C)C)NC(=O)C(CO)NC(=O)C1CCC(=O)N1 (centres undefined)	·	·	-5.5	-18.3	0.3%
O=C1CC2(CCN(C(=O)C3CC(=O)N(c4ccc(F)cc4)C3)CC2)Oc2ccccc21 (centres undefined)	·	·	-0.3	-5.9	·
COc1cc(Nc2nc(-c3ccccc3)c3cc(C)ccc3n2)cc(OC)c1OC	-0.4	-32.1	13.8	98.7	·
CN(CC(=O)Nc1c(Cl)cccc1Cl)C(=O)c1ccccc1Cc1ccccc1	·	·	-2.2	1.7	·
Cc1ccc(-c2nn(C)c(=O)c3ccccc23)cc1CNC(=O)Cn1nc(-c2ccccc2)c2ccccc2c1=O	1.6	-5.2	1.7	·	·
COc1cccc(C(=O)N2CCN(C(=O)c3cccc(F)c3)CC2)c1	-20.2	2.2	0.4	-0.8	4.3%
CCn1c(N2CCN(CC(=O)c3c[nH]c4ccccc34)CC2)nc2c1c(=O)[nH]c(=O)n2C	-25.8	-0.4	2.1	-5.4	·
Cc1ccsc1/C=C1/SC(N2CC(C)OC(C)C2)=NC1=O (centres undefined)	-18.8	-6.7	-1.7	76.9	76.2%
COc1cc2nc(=S)n3[nH]c(CCn4nc(C)cc4C)nc3c2cc1OC	0.6	8.2	1.6	56.5	-13.6%
CCSc1nnc(Nc2ccc(C)cc2)s1	-149.6	9.5	1.4	-2.6	10.8%
O=C(Cc1ccccc1)c1c[nH]c(C(=O)NCCCN2CCOCC2)c1	·	4.6	-1.4	1.5	0.5%
CC(=O)c1ccccc1C(=O)N1CCC(n2nccc2NC(=O)C2CC2)CC1	·	·	-1.5	-1.8	·
Nc1nc(-c2cccs2)cs1	-2.1	-1.1	-1.3	77.5	-0.7%
COc1ccc(/C(=C/c2ccc(OC(F)F)c(OC)c2)C(=O)O)cc1OC	-43.9	-1.9	-1.3	0.5	-10.3%
Cc1cc(Cl)c(S(=O)(=O)NC(C(=O)O)c2ccccc2)cc1OCC(N)=O (centres undefined)	-37.2	-2.4	-1.4	-7.5	-3.5%
CC(=O)C1=C(O)C(=O)N(Cc2ccccc2)C1c1ccc([N+](=O)[O-])cc1 (centres undefined)	·	·	0.0	-10.3	·
CCOC(=O)C1=C(COC(=O)CCOc2ccccc2C)NC(=O)NC1C (centres undefined)	·	·	1.2	-8.3	·
Cc1cc(C(F)(F)F)nc(SCC(=O)NC2CCCCC2)n1	·	·	0.3	-4.7	·
O=C(c1ccc(Cl)c(S(=O)(=O)N2CCCCCC2)c1)N1CCOCC1	·	2.4	0.6	-5.0	5.0%

Ordered by formula weight (highest first): part of the list above.
SMILES	YopH inh	Arbovirus anti	RecA splice inh	Mtb betalactam	Mtb growth	others
COc1ccc(Cl)cc1NC(=O)CSc1nnc(Cc2cccn2C)n1-c1ccc(F)cc1	-22.8	-13.1	12.4	-2.3	1.1%
COc1cccc(C(=O)N2CCN(C(=O)c3cccc(F)c3)CC2)c1	-20.2	2.2	0.4	-0.8	4.3%
O=C(CN1CCOCC1)Nc1ncccn1	-11.7	4.6	0.7	3.2	-6.0%

Next section.
SMILES	YopH inh	Arbovirus anti	RecA splice inh	Mtb betalactam	Mtb growth	others
CCC(CO)n1c(SCc2cc([N+](=O)[O-])cc3c2OCOC3)nc2ccccc2c1=O (centres undefined)	1.9	-9.4	9.5	0.6	1.3%
O=c1cc(N2CCc3ccccc32)[nH]c(=O)n1-c1ccc(Br)cc1	-35.5	7.0	-4.5	-1.3	3.0%
Cc1cc(-c2nnc(SCc3ccccn3)o2)no1	-27.4	6.3	-1.7	10.8	-8.5%
O=C(Nc1ccccc1)/C(=C/c1ccc2c(c1)OCO2)NC(=O)c1ccco1	-21.9	5.7	-0.3	3.0	-1.2%
COc1ccc(/C=N/NC(=O)c2ccoc2C)cc1COc1c(C)cccc1C	-27.5	-17.1	16.4	3.7	-9.3%
COc1ccc2oc(C(=O)OCC(=O)NCc3ccccc3OC)c(C)c2c1	·	·	-1.1	0.9	·
CCCc1cc(=O)oc2cc(OC3CCCCC3=O)ccc12 (centres undefined)	·	·	-1.2	1.5	·
O=C(NCc1ccco1)c1ccc(COc2cccc3ccccc23)cc1	-19.0	-2.3	2.1	10.7	12.6%

Gathered by group, those above containing a nitro group on carbon.
SMILES	YopH inh	Arbovirus anti	RecA splice inh	Mtb betalactam	Mtb growth	others
CC1(C)Cc2cccc(OCC(=O)N3CCN(c4ccc([N+](=O)[O-])cc4)CC3)c2O1	-4.2	5.0	0.1	-3.5	12.3%
CC(=O)C1=C(O)C(=O)N(Cc2ccccc2)C1c1ccc([N+](=O)[O-])cc1 (centres undefined)	·	·	0.0	-10.3	·
CCC(CO)n1c(SCc2cc([N+](=O)[O-])cc3c2OCOC3)nc2ccccc2c1=O (centres undefined)	1.9	-9.4	9.5	0.6	1.3%

A portion of the library, so the mix of outcomes need not match the whole.
